Assay outcomes: PubChem BioAssay, several laboratories
RN4220 kill = S. aureus RN4220 growth inhibition | OD600, 16 h | actives 0.33% (n = 330,000) | inhibition, % (no concentration beside the values);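 active = z-score of -3 or lower and OD600 up to 0.18 on both plates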;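 note: plate controls were untreated cells for no effect and reference antibiotic for full effect; stock transfer was 100 nL into about 80 µL; one replicate is shown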
Mtb hypoxia rep = inhibitors of hypoxia-regulated fluorescent reporter in Mycobacterium tuberculosis; M. tuberculosis hypoxia-regulated fluorescent reporter, fluorescence; fluorescence inhibition, % (concentration not given with the values); actives 0.1% (n = 300,000); AID 1159583;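 active = 35 to 45% if threefold the growth effect, above 45% if 1.5-fold the growth effect; inactive = the rest, general growth blockers included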;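 note: wells of about 50 µL received 100 nL stock; 0% = vehicle wells and 100% = reference inhibitor wells; whole bacteria with a GFP reporter of the hypoxia response; strong numbers were not always called active; many hits fall short of the cut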
BJeLR viability = BJeLR cell viability loss; BJeLR (HRASV12) viability, CellTiter-Glo ATP luminescence, 48 h; reference of the scale not given here; inhibition, % (test concentration not listed); actives 0.17% (n = 300,000);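 active = replicate mean above 50%; inconclusive = above 50% but judged a plate artefact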;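 note: 50 nL library stock added to about 25 µL; numbers are from one replicate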
PrP UTR inh = suppresses PrP 5' UTR mRNA reporter expression. cell-based PrP 5' UTR mRNA reporter, plate reader. inhibition, % (no concentration beside the values). actives 0.35% (n = 340,000). AID 488862;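 active = every replicate at 50% or more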;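 note: 0 = median of the neutral control wells; tested in H4 reporter cells; numbers are from one replicate; inactives centre near -14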
Autofluor counter = counter-screen for toxin protease inhibitors: compound fluorescence | actives 3.1% (n = 360,000) | AID 624483 | compound autofluorescence counterscreen, microsphere flow cytometry; hits give high values | fluorescence intensity (no concentration beside the values);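 active = at least 3 SD above the mean of all compounds, about 16000 in these data; inconclusive = too few beads counted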;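 note: 100 nL of 1 mM stock went into each well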
ugtP null kill = growth inhibition of S. aureus ugtP deletion strain; S. aureus RN4220 ugtP deletion, OD600 growth, 16 h; some inactives read as strong as hits; growth inhibition, % (no concentration beside the values); actives 0.54% (n = 330,000); AID 1259309;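 active = z-score under -3 and OD600 up to 0.15 on both plates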;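 note: plate controls were untreated wells for no effect and antibiotic for full effect; wells of about 80 µL received 100 nL stock; the first replicate is given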
Mtb hypoxia rep growth = further read-out of Mtb hypoxia rep, marked with its call; growth inhibition, %; measured here: M. tuberculosis growth (absorbance);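 0% = vehicle and 100% = reference antibiotic; read after six days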
Starred values were filed as active, the others as inactive; ? = inconclusive; nt = not tested or not shown.

smiles	RN4220 kill	Mtb hypoxia rep	Mtb hypoxia rep growth	BJeLR viability	PrP UTR inh	Autofluor counter	ugtP null kill
N#C/C(=C\c1ccc(F)cc1F)S(=O)(=O)c1ccccn1	4.9	12	5	-2	-18	4513	0
O=C(c1cc2ccccc2o1)N1CCCCCC1	0.6	nt	nt	-4	-28	3666	7
O=S(=O)(NC1CCCC1)c1ccccc1Br	nt	nt	nt	-5	-5	4103	nt
CCOc1cc(CN2CCCC(C(=O)c3cccc(C(F)(F)F)c3)C2)ccc1O (configuration not stated)	4.0	-1	1	-5	-2	3122	12
COc1ccccc1NC(=O)CC12CC3CC(CC(Br)(C3)C1)C2	0.0	12	12	-5	-31	4393	7
COc1ccc(OC)c(NC(=O)NC2(C(F)(F)F)Oc3ccccc3O2)c1	7.6	17	3	5	0	3933	0
COc1ccc(/C=N\NS(=O)(=O)c2ccc(Cl)cc2)cc1COc1ccccc1[N+](=O)[O-]	nt	nt	nt	-7	-8	4651	nt
CCN(CC)C(=O)c1oc2ccc(S(=O)(=O)N3CCCCCC3)cc2c1C	11	5	10	8	-11	4437	-11
CC(=O)c1sc(Nc2cccc(C)c2)nc1C	3.7	-4	-2	-4	-37	4518	-5
CCNc1nc(NC(C)CC)nc(Oc2ccc(OCC)nn2)n1 (configuration not stated)	-1.8	-4	7	10	-13	2633	6
O=C(CSc1nnc(Nc2ccccc2F)s1)c1cc2ccccc2o1	9.1	18	10	-9	-8	2731	-18
Cc1cc(Cl)cc(Cl)c1OCCOc1cccc2cccnc12	11	nt	nt	0	0	2785	0
COc1cccc(-n2c(SCC(=O)O)nnc2-c2cccnc2)c1	5.3	15	9	-2	-27	10541	5
CC1CCN(Cc2c(C(=O)N/N=C/c3cc(Br)ccc3O)nnn2-c2nonc2N)CC1	nt	nt	nt	20	38	4959	nt
COc1ccc(C2=NOC(C(=O)NCC(C)C)C2)cc1 (configuration not stated)	2.1	nt	nt	-2	-24	11082	6
CN(C)c1ccc(C=NNC(=O)c2ccc(CN3CCOCC3)cc2)cc1Br	0.9	4	9	nt	nt	nt	-3
Cc1cc(S(=O)(=O)NCCCN2CCOCC2)ccc1F	7.9	10	5	-5	-16	2631	1
Cc1nc2ccccn2c1C(=O)NN	7.0	3	5	10	-16	1935	12
COC(=O)c1c(NC(=O)CN2CCN(S(=O)(=O)c3ccccc3)CC2)sc2c1CCC(C)C2 (configuration not stated)	5.6	0	7	1	nt	nt	-1
COc1cccc(-c2cc(C(=O)Nc3cccc(O)c3)no2)c1	1.1	-3	12	3	-24	24356*	-15
CC(=O)c1cccc(NC(=O)c2ccc3c(Cl)c4c(nc3c2)CCCC4)c1	6.2	1	4	1	-38	2074	3
O=C(C1CCN(S(=O)(=O)c2cccnc2)CC1)N1CCN(C2CCCC2)CC1	0.5	nt	nt	0	2	3658	3
O=C(CN1C(=O)c2ccccc2C1=O)N1CCN(C(=O)c2ccco2)CC1	5.8	9	4	2	-15	9789	11
CCn1c(SCc2ccc(F)cc2)nnc1C1CCN(S(=O)(=O)c2ccc(OC)cc2)CC1	2.6	5	11	1	-5	3768	-5
O=C(COC(=O)c1cc([N+](=O)[O-])ccc1N1CCOCC1)Nc1ccc(Cl)cc1	-3.8	6	-1	-3	-18	5761	-2
CC(C)(C)c1cc(N)n(-c2ccc(C(=O)O)cc2)n1	-0.2	3	6	-3	-13	4187	2
CCc1ccccc1NC(=O)CN1CCN(C(=O)C(C)NC(=O)c2ccc(Cl)cc2)CC1 (configuration not stated)	1.2	4	7	nt	-2	5465	3
CC(C)(C)NC(=O)C(=O)NNC(=O)COc1ccccc1	1.4	0	4	-18	-22	2358	9
Cc1ccc(N(CC(=O)NCc2ccc(Cl)cc2)S(C)(=O)=O)cc1	1.5	-3	6	-10	-8	4049	-3
Cc1ccc(CNc2nc(C)cs2)cc1	-5.0	-8	-2	-5	-49	2812	-7
COc1ccc(CN(C(=O)c2nsc(Cl)c2Cl)C(C(=O)NC2CCCC2)c2ccc(OC)cc2)cc1 (configuration not stated)	2.2	7	-2	-4	-35	2560	-1
CCOCCCNC(=O)CCn1ccc2cc(S(=O)(=O)N3CCCC3)ccc21	3.6	8	-4	-14	-1	4236	7
COC(=O)c1cn(C(=O)c2ccccc2F)nc1N	2.7	3	3	-6	-29	21604*	-1
Cc1ccccc1N(Cc1cc(=O)[nH]c2ccccc12)C(=O)C(C)C	4.2	11	5	3	-14	3492	14
Cc1c(Cl)cccc1NC(=O)CCN1CCCCC1	5.6	2	0	-11	-14	9813	3
O=C(CSc1nc2ccccc2c(=O)[nH]1)NCc1ccc(Cl)cc1	-13	21	16	-2	-11	3868	-6
COc1ccc(-c2cc(C(=O)N3CCCCCC3)no2)cc1	0.5	-10	-10	-1	-69	5604	-3
O=c1c2ccccc2cnn1Cc1n[nH]c(=S)n1-c1ccccc1	0.0	1	1	-15	3	2023	1
NC(=NOC(=O)c1ccncc1)c1cccc([N+](=O)[O-])c1	1.7	9	3	nt	nt	nt	2
ClC(Cl)(Cl)c1ccccc1	3.8	9	5	nt	-9	4311	4
O=C(CN(C(=O)CCC(=O)Nc1ccccn1)c1ccc(F)cc1)NCc1ccc(F)cc1	2.0	-8	0	1	2	3827	1
Cc1noc(C)c1CSc1nc2ccccc2n1CCc1ccccc1	4.0	-14	-7	-5	7	4329	-13
COc1ccc(NC(=S)N2CCN(c3ccccn3)CC2)cc1	3.8	2	-2	3	-5	2618	0
CS(=O)(=O)N(CC(=O)Nc1ccc(S(=O)(=O)N2CCOCC2)cc1)c1ccccc1Cl	8.4	2	-3	-6	-5	3393	-2
N#C/C(=C\c1ccc(-c2ccccc2[N+](=O)[O-])o1)C(=O)Nc1nc(-c2cccs2)cs1	13	-7	-3	-13	-20	1886	-15
Cc1ccc(N(C(=O)c2csnn2)C(C(=O)NCc2ccccc2)c2ccccn2)cc1 (configuration not stated)	1.0	3	-4	2	-12	3144	-4
O=C(c1c[nH]c2ccc(S(=O)(=O)N3CCOCC3)cc2c1=O)N1CCCC1	-10.0	5	3	5	-4	?	0
O=c1c2ccccc2cnn1CCOc1ccccc1	13	4	12	8	71*	2420	9
COc1cc(/C=C/C(=O)OCC(=O)Nc2nnc(-c3ccccc3)o2)cc(OC)c1OC	4.4	6	-2	5	-17	?	7
O=C(CCn1nnc2ccccc21)OCC(=O)c1ccc([N+](=O)[O-])cc1	3.2	-2	-2	-2	-13	4756	8
CCOC(=O)c1cnc2c(C)c(Cl)ccc2c1N1CCOCC1	nt	nt	nt	-1	-1	5502	nt
COc1cccc(C(C2=C(O)CC(C)(C)CC2=O)C2C(=O)CC(C)(C)CC2=O)c1 (configuration not stated)	3.5	1	-1	12	-4	7128	17
Cc1nc2ccccc2c(=O)n1NC(=O)c1ccccc1F	2.8	15	3	-4	-16	3717	5
CCOC(=O)C(C)(C)Oc1cccc2c1S(=O)(=O)c1ccccc1-2	6.0	-5	2	2	-16	4191	6
CCSc1nnc(C)c2ccccc12	7.9	17	10	-1	-21	2944	2
CCCn1c(C(C)C)n[nH]c1=S	3.2	0	-5	-5	-6	3616	4
O=C(COC(=O)c1ccc(S(=O)(=O)Nc2ccccc2)cc1)NC1CCCC1	8.6	-5	2	2	-3	2023	9
CCCN1Cc2cccc(C(=O)Nc3ccc4c(c3)OCO4)c2C1=O	2.9	16	26	13	-14	2396	-10
Nc1ncc2c(n1)CCN(c1ccc([N+](=O)[O-])cc1)C2	2.0	-1	-4	-1	-10	4264	-4
Nc1c(C(=O)Nc2ccccc2F)sc2nc(Cc3ccccc3)cc(C(F)(F)F)c12	2.7	-3	0	16	nt	10566	2

Next part
smiles	RN4220 kill	Mtb hypoxia rep	Mtb hypoxia rep growth	BJeLR viability	PrP UTR inh	Autofluor counter	ugtP null kill
CCN(CC)C(=O)COC(=O)C1CCN(S(=O)(=O)c2ccc3c(c2)OCCO3)CC1	3.5	6	6	nt	-18	3557	5
N#Cc1cc([N+](=O)[O-])ccc1NCCN1CCOCC1	1.8	-6	10	-6	-24	2404	3
Cc1ccc(C(=O)N2CCN(Cc3nc4sc5c(c4c(=O)[nH]3)CCCC5)CC2)cc1	1.7	-1	6	-8	-9	3784	12
CCOC1OC(C(N)=O)=CC(c2cn(C(C)=O)c3ccccc23)C1CCCO (configuration not stated)	10.0	16	7	nt	nt	nt	3
COc1cc(C(=O)NCC(=O)Nc2c(C)cccc2C)ccc1OCc1ccccc1	-7.0	-13	-13	nt	-21	3045	-1
COc1cccc(C(=O)Nc2cccc(-c3nnc(-c4ccco4)o3)c2)c1	26	nt	nt	-1	-25	2656	-7
O=C(NN=Cc1sc(=O)n(-c2ccccc2)c1Cl)c1ccncc1	5.2	-8	-5	nt	nt	nt	9
Cc1cc2c(c(=O)n1Cc1ccccn1)C(c1ccc3c(c1)OCO3)C(C#N)=C(N)O2 (configuration not stated)	-2.5	2	21	-4	-1	6071	0
O=C(NC1CCCC1)C(c1ccsc1)N(Cc1ccccc1)C(=O)Cc1cccs1 (configuration not stated)	2.6	0	2	3	-1	4563	-8
Nc1cc(=O)[nH]c(SCC(=O)Nc2ccccc2Sc2ccc(Cl)cc2)n1	6.4	9	1	4	-7	3291	10
COc1ccc([C@@H]2C(C#N)=C(N)S[C@@H](c3ccccc3)[C@@H]2[N+](=O)[O-])cc1	-4.4	16	12	1	-16	2002	30
COc1cccc(-c2nnc(SCc3cccnc3)o2)c1	6.4	11	9	4	-20	17724*	8
CCCCCn1cnc2sc(-c3ccccc3)cc2c1=O	2.3	nt	nt	-1	-54	4304	-12
COc1cccc(C(=O)NC2CC3CCCC(C2)N3CC(=O)Nc2ccc(N(C)C)cc2)c1 (configuration not stated)	-3.6	1	21	-19	2	4171	5
CC(C)N(CC#CCC(O)(c1ccccc1)c1ccccc1)CCO	3.1	3	11	5	-17	3341	2
CCC(C)NC(=O)Nc1ccccc1F (configuration not stated)	2.6	-3	7	-8	-15	2410	0
Cc1cc(C(=O)NN=Cc2c3ccccc3cc3ccccc23)n[nH]1	-0.1	-2	-2	nt	nt	nt	-3
CN(c1ccc(C(=O)NCc2ccco2)cc1)S(C)(=O)=O	-0.2	nt	nt	10	-23	3852	8
COc1ccccc1Nc1ccc(S(=O)(=O)N2CCCCC2)cc1[N+](=O)[O-]	4.5	nt	nt	-13	5	1841	-15
CCOC(=O)Cn1c(C(C)=O)nc2ccccc21	5.3	nt	nt	0	-51	6255	6
CCCCn1c(SCC(=O)Nc2ccc3c(c2)CCC3)nc2ccccc2c1=O	4.7	14	7	3	-1	1938	7
COc1cc(S(=O)(=O)n2ccc(C)n2)c(OC)cc1Cl	-0.9	-7	2	-6	-30	7028	-2
Cc1ccccc1NC(=O)CN1C(=O)S/C(=C/c2cccnc2)C1=O	1.4	0	10	-1	14	6006	0
O=C(NCc1ccccc1Cl)c1ccc(CSc2nc3ccncc3[nH]2)cc1	-0.3	19	-6	6	-14	4157	10
COc1ccccc1C(=O)N1CCN(C(=O)c2oc3ccc(C)cc3c2C)CC1	-11	-4	-3	4	4	?	8
CCOC(=O)N1CCN(C(=O)c2ccc(CS(=O)Cc3ccccc3Cl)o2)CC1 (configuration not stated)	5.3	7	7	5	-18	5956	11
CCN(CC)C(=O)c1ccc2c(=O)n(CCOC)c(=S)[nH]c2c1	4.3	1	9	-2	-18	20993*	1
COc1ccc(NCc2nnc(SCC(=O)Nc3cc(C(F)(F)F)ccc3Cl)o2)cc1	0.9	4	7	-1	-11	3822	7
Cc1c(-c2ccccc2)n[nH]c1C(=O)NN	3.4	0	-4	-2	-12	2482	1
c1ccc2c(c1)[nH]c1cnccc12	5.8	-4	-1	0	-3	4233	-3
COc1ccc2[nH]c(=O)c(CN(CCCN(C)C)C(=O)Nc3ccccc3)cc2c1	6.3	1	4	8	10	2852	4
